Sa helicase inh – blocks Staphylococcus aureus DNA helicase. purified S. aureus helicase, fluorescence unwinding assay; about half of the hits fall short of the stated cut. inhibition, %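 (tested at about 80 µM)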. hit rate 0.05% among 120,000. AID 485395;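 active = both duplicates at 50% or more, or one of them with a favoured structure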;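 also: 0% = mean of negative control wells and 100% = mean of positive control wells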
MgrA-DNA mod – alters Staphylococcus aureus MgrA binding to DNA. fluorescence polarization. inhibition, %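 (about 10 µg/mL by stock and volumes)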. hit rate 0.13% among 84,000. AID 602314;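 active = above 50% in either of two replicates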;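 also: 0% = protein plus DNA without compound and 100% = DNA alone without protein; higher means less MgrA bound to DNA so lower polarization; one replicate is shown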
The depositor's hits bear a star; / = not tested or not shown; & = joins results of further samples. Only part of the results is shown; the hit share may differ from the screen's.

canonical_smiles,Sa helicase inh,MgrA-DNA mod
O=C(c1cnn(-c2ccc(Cl)cc2)n1)c1cccs1,/,-0.5
CCNC(=S)N(C)Cc1cc(Br)ccc1OC,11,/
O=C(O)/C=C/c1ccc(Cl)c(Cl)c1,-17,-0.5
N#Cc1c(N)nc2c(c1-c1ccc(Cl)cc1)CCCC2,/,-2.8
CCN1CCCC1CNC(=O)C1c2ccccc2C(=O)N(CC(C)C)C1c1cccs1 (stereo unspecified),4,2.9
CCc1ccc(S(=O)(=O)c2cnc3ccccc3c2N2CCN(C)CC2)cc1,18,/
CCN(CC)C(=O)C1CC(c2ccc(F)cc2)=NO1 (stereo unspecified),-14,/
COC(=O)c1nn(-c2ccccc2)cc1OCC(=O)N1CCc2ccccc21,15,/
CCCN(CCC)C(=O)c1cnn(-c2ccc(F)cc2)c1-n1cccc1,26,/
CC(C)(C)OC(=O)NC1CCN(C(=O)c2ccco2)CC1,/,-1.2
CC(C)C(N)c1nc2ccccc2[nH]1 (stereo unspecified),12,/
CCOC1(OCC)N=C(N)C2(C#N)C(c3ccc(NC(C)=O)cc3)C12C#N (stereo unspecified),5,/
CCN1C(=O)C2C(c3ccc(F)cc3)NC(CCSC)(C(=O)OC)C2C1=O (stereo unspecified),16,-0.6
Oc1ccccc1N1CCN(C=Nc2nc3ccccc3nc2N2CCOCC2)CC1,8,/
CCNc1nc(SCC(=O)OCC)nc2sc3c(c12)CCC(C)C3 (stereo unspecified),/,0.1
O=C(Nc1ccccc1)NC(c1ccccc1)c1nnc(-c2ccccc2)o1 (stereo unspecified),19,/
O=C(c1cc(=O)c2ccccc2o1)N1CCN(c2ccccc2)CC1,15,/
Cc1cc(C)cc(-n2cnc3ccccc3c2=O)c1,2,-1.2
O=C1OC(c2ccccc2I)=N/C1=C/c1ccc(Cl)c(Cl)c1,/,2.4
Cc1nn(-c2ccccc2)c2c1P(=O)(O)/C(=C1/N(C)c3ccccc3C1(C)C)C=N2,1,/
Cc1cc(Cc2ccc(N)c(C)c2)ccc1N,-2,-2.9
CCOC(=O)Cc1csc(NC(=O)CCN2C(=O)c3ccccc3C2=O)n1,/,-0.8
Cc1cc2c(c(C)nn2-c2ccccc2)c(=O)o1,6,/
Cc1nn(S(=O)(=O)N(C)C)c(C)c1Br,24,/
N#CC1(C#N)C(c2ccccc2)OC23CCCCC2C1(C#N)C(=N)O3 (stereo unspecified),8,/
CC(Sc1nccn1C)C(=O)NC1(C#N)CCCCC1 (stereo unspecified),-6,/
CC(=O)Nc1nc(-c2ccccc2)nc2sc(C#N)c(C)c12,-2,2.9
O=C1C2Cc3ccccc3CN2C(=S)N1Cc1ccccc1 (stereo unspecified),7,/
CCN1CCN(C(=O)C(N)Cc2ccccc2)CC1 (stereo unspecified),-4,/
COc1ccc(N2CCN(CCNC(=O)c3nnc(-c4ccc5c(c4)OCO5)o3)CC2)cc1,-7,1.4
Cc1nnc(SCC(=O)OC2CC(C)CCC2C(C)C)[nH]c1=O (stereo unspecified),3,0.3
CCOC(=O)c1cc(-c2cc(OC)ccc2OC)no1,7,-4.2
COc1ccc(S(=O)(=O)NCc2cccnc2)cc1C(=O)N1CCOCC1,7,3.7
Cc1n[nH]c(C)c1CCC(=O)O,5,/
ONC(=Nc1ccc(C(F)(F)F)cc1)c1c(F)cccc1F,/,3.7
O=S(=O)(NCc1cccnc1)c1ccc2ccccc2c1,2,/
O=C(O)CC1NC(=O)c2ccc(Br)cc21 (stereo unspecified),7,-4.4
CN(C(=O)Cn1ncc2c1-c1ccccc1OC2)C1CCCCC1,9,14
CC1(C)CCCC2=C1CC(C(=O)O)C(C(=O)O)C2 (stereo unspecified),19,/
O=C(/C=C/c1ccco1)Nc1ccc(S(=O)(=O)N2CCCC2)cc1,3,0.3
N#CC(Sc1ccccc1)c1ccc(Cl)cc1 (stereo unspecified),/,0.7
COc1ccc(OCc2nnc(SCC(=O)N(C3CCCCC3)C3CCCCC3)o2)cc1,15,-0.7
CN1Cc2ccc(CN3C(=O)c4ccccc4C3=O)cc2NC1=O,5,1.1
CSc1ncnc(SC)c1Br,/,-0.8
O=S(=O)(c1cc(Cl)ccc1Cl)N1CCC(C(c2ccccc2)c2ccccc2)CC1,/,-0.5
COCCNC(=O)c1cccc2c1-c1ccccc1C2=O,-16,/
C(=N\N1CCOCC1)/c1ccc2c(c1)OCCO2,3,/
O=C(Nc1cccc(Cl)c1)c1cc(F)cc2c1OCOC2,/,-3.0

4 entries from above, arranged by the number in Sa helicase inh, high to low.
canonical_smiles,Sa helicase inh,MgrA-DNA mod
COc1ccc(OCc2nnc(SCC(=O)N(C3CCCCC3)C3CCCCC3)o2)cc1,15,-0.7
CN1Cc2ccc(CN3C(=O)c4ccccc4C3=O)cc2NC1=O,5,1.1
C(=N\N1CCOCC1)/c1ccc2c(c1)OCCO2,3,/
COCCNC(=O)c1cccc2c1-c1ccccc1C2=O,-16,/

New compounds follow:
canonical_smiles,Sa helicase inh,MgrA-DNA mod
CCN(CC)CCn1c2c(c(SCC(=O)Nc3cc(C)on3)nc1=O)CCCC2,5,/
O=C(CCn1nc(-c2ccc(Cl)cc2)c2ccccc2c1=O)NCCN1CCOCC1,3,4.4
CC(C)Oc1ncc(C(F)(F)F)cc1Cl,-9,-2.2
NC(=O)COC(=O)CCc1nc2ccccc2n1-c1ccccc1,10,/
Cc1cccc(N(CC(=O)O)S(C)(=O)=O)c1,11,-4.5
Nc1cc(-c2cc(-c3ccccc3)c(C(F)(F)F)s2)[nH]n1,/,-1.8
O=C(Nc1ccccc1O)c1ccccc1,3,1.3
CN1C(=O)S/C(=C/c2ccc(-c3ccc(C(=O)O)c(Cl)c3)o2)C1=O,12,20
COc1ccc(Nc2ccc(S(=O)(=O)N3CCCC3)cn2)cc1O,10,/
Cc1ccc2oc(-c3ccccc3C)nc2c1,3,2.8
O=C(CNc1ccc(Br)cc1F)NCc1ccco1,9,/
CCOC(=O)COc1cccc2c1CCN(Cc1ccccc1)C2=O,17,/
COc1ccccc1NC(=O)N(Cc1nc(-c2ccc(Cl)cc2)no1)C(C)C,26,/
O=C(CN1CCC(n2nnc3cc(F)ccc32)CC1)NCCc1ccccc1,7,3.3
O=C(CSc1nc(O)cc(=O)[nH]1)N1c2ccccc2Sc2ccccc21,13,0.3
O=C(Cn1cnc2c(nnn2-c2cccc(Cl)c2)c1=O)NC1CCCCC1,17,-0.7
O=C(Cc1ncc(C(F)(F)F)cc1Cl)N1CCN(c2ccc(F)cc2)CC1,/,-0.8
CCN1CCN(C(=O)c2ccc(I)cc2)CC1,-16,-1.2
Cc1nc(NCc2ccco2)c2cc(-c3ccccc3)sc2n1,12,-2.0
COC(=O)c1c(N)sc2c1CCCC2,-3,/
COC(=O)C1CCCN1C(=O)c1ccccc1 (stereo unspecified),13,-0.1
COc1cc(NC2c3ccccc3C(=O)N2Cc2ccco2)cc(OC)c1OC (stereo unspecified),-40,/
Cn1c(=O)cc(OCCCC(=O)N2CCCCC2)c2ccccc21,5,/
O=C(Cc1n[nH]c(=O)c2ccccc12)N1CCc2ccccc2C1,-9,/
O=C1Nc2ccccc2SC1CC(=O)N1CCN(Cc2ccccc2F)CC1 (stereo unspecified),3,/
Cc1ccc(OCC(=O)NC(=S)N2CCOCC2)cc1,8,/
COc1ccc(C2CC(c3ccccc3)=NN2C(=O)c2cccs2)cc1 (stereo unspecified),/,-0.5
CC(C)CC(C(=O)Nc1nnc(C(C)C)s1)N1C(=O)c2ccccc2C1=O (stereo unspecified),13,/
CC(=O)NC(CC(=O)Nc1ccc2c(c1)OCO2)c1ccccc1 (stereo unspecified),8,/
CCSc1nc(Cl)c2ccccc2n1,15,-5.3
CCOc1cccc(/C=N/n2c(C)n[nH]c2=S)c1,-1,9.9
O=C(NCCC(=O)N1CCCCCC1)c1ccccc1Cl,-7,/
Cc1ccc2nsnc2c1NC(=O)Cc1ccc(Cl)cc1,8,-2.6
Cc1ccccc1Nc1nnc(C)c(=O)n1N,19,-0.3
CCCCC[C@H](O)/C=C/[C@H]1[C@H](O)CC(=O)[C@@H]1CCCCCCC(=O)O,/,0.2&-0.4
CCc1ccccc1NC(=O)CCOc1ccccc1,-5,/
O=C(CN1C(=O)CSc2ccc(C(F)(F)F)cc21)Nc1cccc(C(F)(F)F)c1,/,0.7
CCCCn1c(SC=O)nc2ccccc2c1=O,13,/
OCc1nc2ccccc2n1Cc1ccccc1,-15,/
O=C(O)c1ccc(CO)cc1,-13,-3.6
O=C(c1ccccc1S(=O)(=O)NCc1ccccc1)N1CCCCC1,1,/
CCCCN(C)C(=O)c1ccc(CS(=O)(=O)c2ccccc2C)o1,10,/
O=C(CCCOc1ccc(Cl)cc1Cl)Nc1c[nH]c(=O)[nH]c1=O,20,/
CCc1cc2c(C)cc(=O)oc2cc1OCC(=O)NCC1CCCCC1,4,-2.0
COc1cccc(-c2cc(C(=O)N3CCN(c4ccccc4)CC3)on2)c1,-1,/
Cc1sc2ncn(-n3cccc3)c(=O)c2c1-c1ccccc1,8,0.4
Cc1cc(C(=O)COC(=O)CSc2nnc(NC3CCCCC3)s2)c(C)n1C1CC1,10,/
CCOC(=O)c1c(-c2ccccc2)oc2ccc(O)c(CN3CCN(C)CC3)c12,1,/
Cc1noc(C)c1S(=O)(=O)N=S(C)(=O)c1ccc(Cl)cc1 (stereo unspecified),/,2.1
Cc1ccc(NC(=O)CCc2c(C)[nH]c(=O)c(C#N)c2C)cc1,7,/
O=C(CCN1CCOCC1)Nc1cc(Cl)cc(Cl)c1,/,1.0
CC(C)(Oc1ccc(Cl)cc1)C(=O)OCC(=O)Nc1ccc(Cl)cc1,-11,-1.8
CC1=C(C)CC2C(=O)N(Cc3ccccc3)C(=O)C2C1 (stereo unspecified),5,4.8
COc1ccc(OC)c2[nH]c(=O)c(CCNC(=O)/C=C\c3ccc4c(c3)OCO4)cc12,3,1.1
Cc1cc(C(=O)COc2ccc3ccc(=O)oc3c2)c(C)n1-c1nccs1,12,/
COc1ccc(Cl)cc1C(=O)NN1C(=S)NC(C)(C)C=C1C,9,-1.3

Remaining list, next part:
canonical_smiles,Sa helicase inh,MgrA-DNA mod
NC(=O)C1CC2C=CC1C2 (stereo unspecified),-1,0.3
CC1=CCC23CC1C(=O)C=C2CC(C)(C)CC3=O (stereo unspecified),-12,/
COc1ccc(NC(=O)CC2CS(=O)(=O)CC2CC(=O)Nc2ccc(OC)cc2)cc1 (stereo unspecified),0,-2.1
Cc1ccc(C)c(-c2nnc(NC(=O)c3cccc(S(C)(=O)=O)c3)o2)c1,12,/
O=C(CSc1nc(-c2ccccc2)nc2c1CCCC2)c1ccc(O)c(O)c1,20,/
COc1ccc(/C=C/C(=O)Nc2ccc(NC3CCCCC3)c3c2C(=O)c2ccccc2C3=O)cc1,/,-2.7
CSc1ccccc1C(=O)O,-20,-5.5
Cn1c(=O)oc2cc(S(=O)(=O)N3CCc4ccccc4C3)ccc21,5,/
Fc1cccc(N=Cc2ccc3c(c2)OCO3)c1,/,-2.0
CC(C)Nc1nc(NC2CCCC2)nc(N2CCOCC2)n1,13,/
C=CCOc1cccc(C(=O)Nc2ccccc2)c1,-12,1.3
Cc1ccc(NC(=O)C(OC(=O)c2ccccn2)c2ccccc2)cc1Cl (stereo unspecified),-18,-0.9
CCOC(=O)CSc1ncnc2sc(C)c(C)c12,1,-0.6
O=c1c(Cl)c(Cl)cnn1-c1ccc(C(F)(F)F)cn1,21,/
O=C(O)CCc1ccc(-c2ccccc2)n1-c1ccccc1O,1,0.2
CCOc1ccc(C(=O)C[n+]2ccsc2N)cc1,19,/

Reprinted at random: 7 entries already listed.
canonical_smiles,Sa helicase inh,MgrA-DNA mod
O=c1c(Cl)c(Cl)cnn1-c1ccc(C(F)(F)F)cn1,21,/
Cc1ccc(NC(=O)C(OC(=O)c2ccccn2)c2ccccc2)cc1Cl (stereo unspecified),-18,-0.9
Fc1cccc(N=Cc2ccc3c(c2)OCO3)c1,/,-2.0
CCOc1ccc(C(=O)C[n+]2ccsc2N)cc1,19,/
CCOC(=O)CSc1ncnc2sc(C)c(C)c12,1,-0.6
CC(C)Nc1nc(NC2CCCC2)nc(N2CCOCC2)n1,13,/
O=C(O)CCc1ccc(-c2ccccc2)n1-c1ccccc1O,1,0.2

Next section:
canonical_smiles,Sa helicase inh,MgrA-DNA mod
COc1ccc2c(c1)N(C)/C(=C1/OC(=S)N(C)C1=O)S2,-26,0.4
Cc1cc(NC(=O)CCCN2C(=O)c3cccnc3C2=O)ccc1Br,7,/
O=C(Nc1ccc(N=Cc2cccnc2)cc1)c1ccccc1O,/,-0.1
COc1ccc(OC)c(Nc2nc3nonc3n3nnnc23)c1,0,2.9
N#Cc1c(N)nc(C(F)(F)F)nc1-c1ccccc1,-19,2.0
O=C(/C=C/c1ccccc1)Oc1ccc(-c2nnco2)cc1,-7,/
CCCC(C)C(=O)Nc1cc(C)ccn1 (stereo unspecified),11,5.7
O=S(=O)(c1ccc(F)cc1)N1CC=C(c2ccccc2)CC1,/,0.3
COc1ccc(C2c3c(n(C)c(=O)n(C)c3=O)N=C3c4ccccc4C(=O)C32)cc1 (stereo unspecified),19,/
O=C1S/C(=C\c2ccccc2)C(=O)N1CCn1cnnn1,16,/
CCN(CC)C(=S)Oc1ccc(Br)cc1C(=O)NCCc1ccncc1,/,-0.6

Assay outcomes deposited in PubChem by ICCB-Longwood Screening Facility, Harvard Medical School.
